# NPYLR7 agonist: agonists of mosquito NPYLR7 receptor, primary screen, cell-based, Aedes aegypti, calcium fluorescence, mosquito biting behavior; Aedes aegypti neuropeptide Y-like receptor 7 (NPYLR7); HEK293T NPYLR7/Galpha15, GCaMP6s calcium fluorescence; activation, % at 10 µM; 0.15% of 270,000 active; AID 1259423, 2018; in the data active = activation above about 40%;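 note: 0% = vehicle and 100% = reference agonist at the receptor; some compounds past the cut are filed as inactive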
# NPYLR7 agonist max-min: recorded beside NPYLR7 agonist, whose call it bears; activation, %; measured here: Max-Min RFU normalised activation; some inactives read as strong as hits;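 span of the calcium signal over five minutes; 0% = vehicle and 100% = native peptide agonist; compound fluorescence can raise it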
# Starred values were filed as active, the others as inactive; & = joins results of further samples.
SMILES,NPYLR7 agonist,NPYLR7 agonist max-min
CCc1ccccc1NC(=O)N(CCCOC)Cc1cccn1Cc1ccccc1Cl,1,14
CCc1nc(-c2ccccc2)nc(N2CCN(C(=O)COC)CC2)c1Cc1c(F)cccc1Cl,2,11
N#Cc1c(-c2ccc3c(c2)OCO3)c(C#N)c2sc3ccccc3n2c1=O,13,8
Cc1ccc(-n2c(-c3ccc(F)cc3)cc(C(=O)N3CCN(c4cccc(C(F)(F)F)c4)CC3)c2C)cc1,19,21
O=S(=O)(Nc1ccc2c(c1)CCC2)c1cc(Cl)cc(Cl)c1,-1,-5
N#CCn1ccn(-c2ccc3c(c2)OCO3)c(=O)c1=O,12,10
CC(=O)Nc1ccc(Cl)c(C(=O)N(CCCO)Cc2cccs2)c1,3,-5
Cn1ccnc1SCCNC(=O)c1nc(N2CCCC2)nc2c1CCCC2,3,1
CCn1c(C2CCCN(C(=O)CCN3CCCCCC3=O)C2)nn(C)c1=O (stereo not drawn),-1,-3
CN(C(=O)CCn1cccn1)C1CCCN(Cc2ccccc2F)C1 (stereo not drawn),12,0
CCOC(=O)CNC(=O)N1CCC(C(=O)NC2CCCC[C@H]2NC(=O)c2ccc(F)cc2)CC1 (stereo partly drawn),4,11
COc1ccc(NC(=O)c2sc(=O)n(Cc3ccccc3)c2C)cc1,-7,-8
CC1SC(c2ccccc2F)N(CCC(=O)N2CCCC2)C1=O (stereo not drawn),-1,6
CCC(C(=O)NCc1ccc(F)cc1)n1c(=O)n(-c2cccc(C(F)(F)F)c2)c(=O)c2ccccc21 (stereo not drawn),0,1
C=Cc1ccc(CSC2=NS(=O)(=O)c3ccccc3N2)cc1,-5,-9
COc1ccc2[nH]c(CNC(=O)C(=O)c3ccco3)cc2c1,3,0
Cc1nc(-c2ccccc2)n(CC(=O)NN2CCOCC2)c1C,9,0
CCOc1ccc(S(=O)(=O)NCc2ccc3c(c2)OCO3)cc1C,-2,-5
CCc1nc2c(OCc3ccc(C(F)(F)F)cc3)cccn2c1N(C)C(=O)COc1ccccc1,-26,-29
Cc1ccc2oc(C(=O)N(C)Cc3ccccc3N3CCCCC3)cc(=O)c2c1,-5,-7
CN(C)c1cccc(C(=O)N2CCN(C(c3ccccc3)c3ccc(Br)cc3)CC2)c1 (stereo not drawn),32,16
O=C(O)c1csc(-c2ccc(Cl)cc2Cl)n1,-4,-4
CCOC(=O)c1cc(-c2ccc(C=C3C(=O)NC(=S)NC3=O)o2)ccc1Cl,0,10
COCCCN(Cc1csc(COc2cccc(C)c2C)n1)C(=O)NC(C)(C)C,-3,8
CC(C)c1nc(CN(C)C(=O)c2ccc(C3CCCN3)s2)cs1 (stereo not drawn),-3,-3
O=C(Nc1ccc(F)cc1)c1cc(-c2ccccc2F)nn1-c1ccc(F)cc1,-1,4
COC(=O)c1ccc(NC(=O)NC2CCc3[nH]ncc3C2)cc1 (stereo not drawn),-7,105
Fc1ccc(Br)cc1CN1CCCN2CCCC2C1 (stereo not drawn),8,5
Cc1cc(Br)cc(Cl)c1OCC(=O)N1CCC(NC(=O)c2ccccc2)CC1,0,6
CCCCNC(CC(=O)Nc1c(C)cc(C)cc1C)C(=O)O (stereo not drawn),5,3
C/C(=C\c1ccccc1)CN1CCC(O)(CO)CC1,-3,0
COc1cc2c(cc1OC)C(CNC(=O)Nc1ccc(C)cc1)N(Cc1cccc(C)c1)CC2 (stereo not drawn),4,5
COc1ccc(NC(=O)Cn2nc(-c3ccco3)c3sc(N4CCCC4)nc3c2=O)cc1OC,-2,-5
O=C(NC1CC2CCC(C1)N2CCc1ccc(F)cc1)c1ccc(C(F)(F)F)c(F)c1 (stereo not drawn),2,7
Cc1cc(=S)oc2ccccc12,2,1
COc1cc(NC(=O)c2ccccc2)c(OC)cc1NC(=O)CN1CCC2(CC1)OCCCO2,-8,-11
CC(C(=O)NC1CCCCC1)N1CCN(CC(=O)Nc2ccccc2Cl)CC1 (stereo not drawn),-1,-1
COc1cc(/C=C(\C#N)C(=O)c2ccc(O)c(O)c2)cc(I)c1O,191*,197*
CCOC(=O)CNC(=O)CSc1nc2c([nH]c3ccccc32)c(=O)n1CC,3,3
Cc1[nH]c(C)c(Cl)c(=O)c1Cl,5&-14&-21,0&-27&-32
O=C(C1CCCN1S(=O)(=O)c1cccc2nsnc12)N1CCn2c1nc1ccccc12 (stereo not drawn),4,3
O=C(NCCc1ccc(Cl)cc1Cl)c1cc(-c2ccccc2Cl)nn1-c1ccc(F)cc1,11,19
CC(NC(=O)C1CCN(S(=O)(=O)c2ccc3c(c2)OCCO3)CC1)C12CC3CC(CC(C3)C1)C2 (stereo not drawn),-1,17
COCCn1c(=O)c2c(nc3n(-c4ccc(Oc5ccccc5)cc4)c(C)cn23)n(C)c1=O,6,4
COc1ccc(-c2cccc(C(C)N(C)C)c2)cc1CO (stereo not drawn),2,-5
Cc1cc(N2CCNCC2)nc(-c2ccc(C(F)(F)F)cc2)n1,-9,-2
O=C(CN(CCN1CCOCC1)C(=O)C12CC3CC(CC(C3)C1)C2)N(Cc1ccc(F)cc1)Cc1ccco1,0,7
CCc1c(NC(=O)c2scnc2C)n[nH]c1-c1ccncc1,2,-7
O=C(O)C1CCCN(S(=O)(=O)c2cccs2)C1 (stereo not drawn),1,-2
COc1cccc(-c2cc(C(=O)NCCC(C)C)n(-c3ccc(Cl)c(Cl)c3)n2)c1,-4,8
CC1(C)Cc2nc(C(C)(C)C)ncc2C(NC(=O)CCN2CCCC2=O)C1 (stereo not drawn),11,2
O=C(NCc1ccncc1)c1cccc(Br)c1O,0,0
O=C(NC[C@@H]1CCNC[C@H]1O)c1nc2ccccc2[nH]1,3,2
CCc1ccc(CN(C)Cc2nc(Cc3ccccc3F)no2)cc1,-1,-4
COc1cccc(CN(CC2CC(c3ccc(F)cc3)=NO2)C(=O)c2cccs2)c1 (stereo not drawn),21,27
CCOc1ccccc1CNC(=O)c1cc(N2CCN(c3cccc(C(F)(F)F)c3)CC2)nc2ccccc12,5,2
Cc1cc(C)n(-c2ccc(Nc3ccc(NC(=O)Nc4ccc(F)cc4)cc3)nn2)n1,-2,-9
COC(=O)C(c1ccc(F)cc1Cl)C1C=CC(NC(=O)c2ccc(SC(F)(F)F)cc2)C1 (stereo not drawn),4,-1
CCOCCn1cnc(-c2ccccc2)c1-c1ccc(S(=O)(=O)NC)cc1,-1,-7
COCCC1(CNC(=O)NCc2cnc(C)s2)CCCC1,5,3

# Continuation:
SMILES,NPYLR7 agonist,NPYLR7 agonist max-min
COC(=O)C(=O)N1CCc2ccccc2C1c1ccccc1F (stereo not drawn),-2,7
CCOC(=O)CNC(=O)c1c(-c2ccccc2Cl)noc1C,-11,-15
CN(C)c1ncnc2c1C(c1ccccc1)c1c(ncnc1N(C)C)O2,-14,-14
CCOC(=O)c1c(C)oc2ccc(OC(=O)c3ccc(Br)o3)cc12,-4,-5
CCOC(=O)C1=C(O)/C(=C\c2ccc(O)cc2O)SC1=Nc1ccccc1OC,11,13
Cc1ccc2nc(C)c(C)c(C(=O)NC(C)Cc3cnccn3)c2c1 (stereo not drawn),0,0
Cc1ccsc1-c1cccc(NC(=O)N(C)C2CCN(C)C2=O)c1 (stereo not drawn),7,3
Cc1ccc(OCC(=O)Nc2ccc(N3CCCC3=O)cc2)cc1C,-2,-5
COc1ccc(C)cc1S(=O)(=O)Nc1ccc(Nc2ccc(-n3ccc(C)n3)nn2)cc1,-2,-8
CCC(C)N(Cc1cc(Cl)ccc1OS(C)(=O)=O)C(=O)c1ccccc1Cl (stereo not drawn),14,14
C/C=C/c1cc(C(=O)NC(C)c2ccc3c(c2)OCCO3)cc(OC)c1OC (stereo not drawn),-2,-2
C=C(C)CN1CCN(c2cc(C)nc3c(-c4ccc(OC)c(OC)c4)c(C)nn23)CC1,6,5
CCc1cc(NCC2(O)CCCCC2)nc(N2CCOCC2)n1,-7,-9
Cc1ccc(O)c(-c2nc3cc(Cl)ccc3o2)c1,-5,-11
COc1ccc(Nc2nc(-c3cc4c(ccc5ccccc54)oc3=O)cs2)cc1,-1,5
CC(C)Cc1cc(CNC(=O)C2COc3ccccc3O2)no1 (stereo not drawn),-5,-8
O=C1OC(C(O)c2cccc(Cl)c2Cl)c2ccccc21 (stereo not drawn),-1,-3
CC(C)c1nccc(C(=O)N(C)Cc2ccc3ccccc3n2)n1,13,8
CCC(=O)Nc1c(-c2cccc(Cl)c2)nc2cc(C)ccn12,-9,-2
Cc1nc2c(c(N(C)C)n1)CCN(C(=O)Cc1cnc(C)[nH]c1=O)C2,-10,-12
Cc1nc(NCCNC(=O)c2ccccc2)cc(N2CCOCC2)n1,-2,-3
CN(Cc1ccsc1)Cc1cc(-c2ccccc2)no1,-3,-2
CCOC(=O)Cn1c(=O)c2c(nc3n(CC4CCCO4)c(C)cn23)n(C)c1=O (stereo not drawn),1,7
CCCN(Cc1c(-c2ccccc2)noc1N1CCCC1)CC(O)Cc1ccccc1 (stereo not drawn),3,2
CN(Cc1cnn(-c2ccc(F)cc2)c1)Cc1ncccc1C(=O)O,1,41
CC1CN(C(=O)Cn2cc(SCC(=O)N(C)c3ccccc3)c3ccccc32)CC(C)O1 (stereo not drawn),-2,-7
Cc1cn2c3c(=O)n(Cc4c(F)cccc4Cl)c(=O)n(C)c3nc2n1CCCO,1,-2
COCCCN(Cc1cccn1Cc1ccccc1Cl)C(=O)Nc1ccc(OC)cc1,4,10
CNC(=O)NC(=O)COC(=O)CC12CC3CC(CC(C3)C1)C2,10,2
CCOc1cccc2c1OC[C@@H]1CN(CC(C)(C)O)C(=O)CCN(C(=O)COC)[C@H]21,23,21
CCOC(=O)c1c(NC(=O)CN2CCN(c3ncccn3)CC2)sc2c1CCC(C)C2 (stereo not drawn),11,14
Cc1cc2cc(CNC(=O)CC3CCCCC3)ccc2n1C,6,0
Cc1nc(Cl)cc(NC2CC2c2cccc(F)c2F)n1 (stereo not drawn),14,10
Cc1nc(CN2CCN(C(=O)CSc3nnc(C)s3)CC2)no1,-1,1
Cc1ccc(-n2c(C(C)N(Cc3ccccc3)S(=O)(=O)c3ccc(Br)cc3)nc3ccccc3c2=O)cc1 (stereo not drawn),14,22
Cc1nn2c(nnc3c(=O)n(N)ccc32)c1-c1ccccc1,-1,-1
O=C(Cn1nc2c(c1NC(=O)c1ccc(F)c(F)c1)CSC2)NCC1CCCO1 (stereo not drawn),-6,-3
Cn1nnc2c(N3CCN(C(=O)c4ccccc4SC(F)F)CC3)ncnc21,0,6
COc1ccc(F)c(-c2cc3c(cc2C(N)=O)OCO3)c1,8,6
CCCc1cc(=O)n(CC(=O)Nc2ccc(OC)cc2)c(-n2nc(C)cc2C)n1,-4,-1
O=C(Nc1ccc2nc(NC(=O)C3CCCCC3)sc2c1)C1CCCCC1,3,4
Cc1ccc2c(c1)c(C1CCN(C(=O)c3cnn(C)c3Cl)CC1)cn2C,22,31
N#Cc1c(CN2CCCCC2)cc(=O)n2c1sc1ccccc12,2,0
Cc1noc(C)c1CS(=O)CC(=O)Nc1ccc(Cl)cc1 (stereo not drawn),-2,-7
Cc1nc(SCC(=O)NC(=O)Nc2ccc(Br)cc2)oc1C,-3,-7
CCOC(=O)c1cc(C(C)(C)C)n(C2CCN(C(=O)Cn3cnc4c3c(=O)n(C)c(=O)n4C)CC2)n1,12,5
CCNC(=O)N(Cc1ccco1)Cc1ccc(N(CC)CC)cc1OS(=O)(=O)CC,5,16
CC(C)C[C@H](NC(=O)[C@H](Cc1ccccc1)NC(=O)c1cnccn1)B(O)O,-6,-12
CNC(=O)c1cc(NC(=O)c2cc3cc(Cl)ccc3o2)ccc1Cl,-7,-9

# Gathered by group, the compounds so far containing an aryl methoxy group (17)
SMILES,NPYLR7 agonist,NPYLR7 agonist max-min
COc1ccc(NC(=O)c2sc(=O)n(Cc3ccccc3)c2C)cc1,-7,-8
COc1ccc2[nH]c(CNC(=O)C(=O)c3ccco3)cc2c1,3,0
COc1cc2c(cc1OC)C(CNC(=O)Nc1ccc(C)cc1)N(Cc1cccc(C)c1)CC2 (stereo not drawn),4,5
COc1ccc(NC(=O)Cn2nc(-c3ccco3)c3sc(N4CCCC4)nc3c2=O)cc1OC,-2,-5
COc1cc(NC(=O)c2ccccc2)c(OC)cc1NC(=O)CN1CCC2(CC1)OCCCO2,-8,-11
COc1cc(/C=C(\C#N)C(=O)c2ccc(O)c(O)c2)cc(I)c1O,191*,197*
COc1ccc(-c2cccc(C(C)N(C)C)c2)cc1CO (stereo not drawn),2,-5
COc1cccc(-c2cc(C(=O)NCCC(C)C)n(-c3ccc(Cl)c(Cl)c3)n2)c1,-4,8
COc1cccc(CN(CC2CC(c3ccc(F)cc3)=NO2)C(=O)c2cccs2)c1 (stereo not drawn),21,27
CCOC(=O)C1=C(O)/C(=C\c2ccc(O)cc2O)SC1=Nc1ccccc1OC,11,13
COc1ccc(C)cc1S(=O)(=O)Nc1ccc(Nc2ccc(-n3ccc(C)n3)nn2)cc1,-2,-8
C/C=C/c1cc(C(=O)NC(C)c2ccc3c(c2)OCCO3)cc(OC)c1OC (stereo not drawn),-2,-2
C=C(C)CN1CCN(c2cc(C)nc3c(-c4ccc(OC)c(OC)c4)c(C)nn23)CC1,6,5
COc1ccc(Nc2nc(-c3cc4c(ccc5ccccc54)oc3=O)cs2)cc1,-1,5
COCCCN(Cc1cccn1Cc1ccccc1Cl)C(=O)Nc1ccc(OC)cc1,4,10
COc1ccc(F)c(-c2cc3c(cc2C(N)=O)OCO3)c1,8,6
CCCc1cc(=O)n(CC(=O)Nc2ccc(OC)cc2)c(-n2nc(C)cc2C)n1,-4,-1

# This is a subset. The share of hits here may be higher or lower than overall.
